Bioassay records: PubChem BioAssay, Broad Institute
Env fusion inh = blocks HIV Env-driven cell-cell fusion | HeLa-JRFL Env/CEM21 cell fusion, luciferase | inhibition, % at 12.3 µM | actives 1.1% (n = 360,000) | AID 651610;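 active means mean replicate inhibition score of at least 50 and every replicate individually at or above 50; inconclusive means only one of the two criteria met; inactive means mean below 50 and not all replicates reaching 50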;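 further: 0% = plate neutral controls and 100% = maraviroc near 300 nM; one replicate is shown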
Yeast UUG start = yeast start codon fidelity modulation. AID 602363. activity score, % at 18.7 µM. S. cerevisiae UUG-firefly luciferase reporter, luminescence/redox ratio. actives 0.13% (n = 350,000);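 active means replicate mean at a twofold rise or more, about +100% in these data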;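 further: firefly luciferase made from a UUG start codon reports start codon fidelity; reporter light over untreated wells divided by growth signal over untreated wells; some hits fall short of that in this replicate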
Active calls of the source: *; u = inconclusive; [ ] = dose if it differs, or a comment. A portion of the library (hit frequency here may not be typical).

Start of the data: the first 2 compounds, ahead of the listing:
SMILES | Env fusion inh | Yeast UUG start
COc1ccc(NC(=O)Nc2ccc3c(c2)C(=O)N([C@@H](C)CO)C[C@@H](C)[C@@H](CN(C)S(=O)(=O)c2ccc(C)cc2)O3)cc1 | -22[16.7 µM] | 9
CCCNC(=O)N[C@@H]1CC[C@@H](CCNS(=O)(=O)c2cccc(F)c2)O[C@H]1CO | -4[16.7 µM] | 3

All compounds of this part, repeating the preview:
SMILES | Env fusion inh | Yeast UUG start
COc1ccc(NC(=O)Nc2ccc3c(c2)C(=O)N([C@@H](C)CO)C[C@@H](C)[C@@H](CN(C)S(=O)(=O)c2ccc(C)cc2)O3)cc1 | -22[16.7 µM] | 9
CCCNC(=O)N[C@@H]1CC[C@@H](CCNS(=O)(=O)c2cccc(F)c2)O[C@H]1CO | -4[16.7 µM] | 3
Cc1noc(C)c1NC(=O)N(C)C[C@H]1Oc2c(NS(=O)(=O)c3ccc(Cl)cc3)cccc2C(=O)N([C@@H](C)CO)C[C@H]1C | 21[16.7 µM] | 20
C[C@H](CO)N1C[C@H](C)[C@@H](CN(C)S(=O)(=O)c2ccc(Cl)cc2)Oc2ccc(NS(=O)(=O)c3cccs3)cc2CC1=O | -22[16.7 µM] | 7
COCC(=O)Nc1ccc2c(c1)C(=O)N(C)C[C@H](OC)[C@H](C)CN(C(=O)c1ccccc1F)[C@H](C)CO2 | 1[16.7 µM] | -12
CCC(=O)N[C@@H]1CC[C@H](CCNS(=O)(=O)c2ccc(Cl)cc2)O[C@@H]1CO | 4[16.7 µM] | 12
CC(=O)N(C)C[C@@H]1Oc2ncc(-c3ccccc3F)cc2C(=O)N([C@H](C)CO)C[C@@H]1C | -20[16.7 µM] | -8
O=C(CN1CCOCC1)NCC[C@H]1CC[C@@H](NC(=O)c2ccccc2F)[C@H](CO)O1 | -22[16.7 µM] | 7
COc1ccc(NC(=O)Nc2ccc3c(c2)CC(=O)N([C@H](C)CO)C[C@H](C)[C@@H](CN(C)S(=O)(=O)c2ccc(F)cc2)O3)cc1 | 12[16.7 µM] | -2
CC(C)C#Cc1cnc2c(c1)C(=O)N([C@H](C)CO)C[C@@H](C)[C@H](CN(C)C(=O)c1cccc(F)c1)O2 | 8[16.7 µM] | 4
C[C@H]1CN([C@@H](C)CO)C(=O)Cc2cc(NC(=O)Cc3ccccc3)ccc2O[C@@H]1CN(C)S(=O)(=O)c1cn(C)cn1 | -9[16.7 µM] | -2
Cc1ccc(S(=O)(=O)Nc2ccc3c(c2)C(=O)N([C@H](C)CO)C[C@@H](C)[C@@H](CN(C)Cc2ccc(-c4ccccc4)cc2)O3)cc1 | 60*[16.7 µM] | 8
C[C@H](CO)N1C[C@H](C)[C@H](CN(C)C(=O)C2CC2)Oc2cc(-c3cncnc3)ccc2S1(=O)=O | 13[16.7 µM] | 8
C[C@@H]1CN([C@H](C)CO)C(=O)Cc2cc(NS(=O)(=O)c3ccc(Cl)cc3)ccc2O[C@H]1CN(C)S(=O)(=O)c1cn(C)cn1 | -24[16.7 µM] | -8
Cc1ccccc1S(=O)(=O)NCC[C@@H]1CC[C@@H](NC(=O)C2CCOCC2)[C@@H](CO)O1 | u | -3
CN(C)C(=O)C[C@H]1CC[C@H]2[C@@H](COC[C@H](O)CN2Cc2ccc(C(F)(F)F)cc2)O1 | 8[16.7 µM] | 3
COc1ccc(NC(=O)Nc2ccc3c(c2)C(=O)N([C@H](C)CO)C[C@H](C)[C@H](CN(C)S(=O)(=O)c2ccccc2)OCCCC[C@@H](C)O3)cc1 | -11[16.7 µM] | 3
O=C(NCC[C@H]1CC[C@H](NC(=O)C2CCC2)[C@@H](CO)O1)c1cnccn1 | -2[16.7 µM] | 7
COc1ccccc1NC(=O)N1C[C@@H](O)COC[C@@H]2O[C@H](CC(=O)NCCc3ccncc3)CC[C@H]21 | -2[16.7 µM] | 0
C[C@@H]1CN([C@H](C)CO)C(=O)Cc2cc(NC(=O)C3CCCCC3)ccc2O[C@@H]1CN(C)S(=O)(=O)c1cccs1 | 6[16.7 µM] | 4

A different layout for some results above.
CN(C)C(=O)C[C@H]1CC[C@H]2[C@@H](COC[C@H](O)CN2Cc2ccc(C(F)(F)F)cc2)O1
- Env fusion inh: 8[16.7 µM]
- Yeast UUG start: 3
COc1ccc(NC(=O)Nc2ccc3c(c2)C(=O)N([C@H](C)CO)C[C@H](C)[C@H](CN(C)S(=O)(=O)c2ccccc2)OCCCC[C@@H](C)O3)cc1
- Env fusion inh: -11[16.7 µM]
- Yeast UUG start: 3

Shown with two lines to a compound: part of the list above.
Below each compound – Env fusion inh	Yeast UUG start
C[C@H](CO)N1C[C@H](C)[C@H](CN(C)C(=O)C2CC2)Oc2cc(-c3cncnc3)ccc2S1(=O)=O
    13[16.7 µM]	8
C[C@@H]1CN([C@H](C)CO)C(=O)Cc2cc(NS(=O)(=O)c3ccc(Cl)cc3)ccc2O[C@H]1CN(C)S(=O)(=O)c1cn(C)cn1
    -24[16.7 µM]	-8

The list continues.
SMILES | Env fusion inh | Yeast UUG start
C[C@@H]1CCCCO[C@H](CN(C)C(=O)Cc2ccccc2)[C@H](C)CN([C@@H](C)CO)C(=O)c2cc(NC(=O)Nc3cccc4ccccc34)ccc2O1 | 4[16.7 µM] | -5
C[C@H]1CCCCO[C@H](CN(C)C(=O)Nc2ccc3c(c2)OCO3)[C@@H](C)CN([C@@H](C)CO)C(=O)c2cc(NS(C)(=O)=O)ccc2O1 | 9[16.7 µM] | 6
NCC[C@H]1CC[C@H](NC(=O)CCN2CCCCC2)[C@@H](CO)O1 | -7[16.7 µM] | -24
O=C(Nc1ccc(Cl)cc1)N[C@@H]1CC[C@@H](CCn2cc(Cc3ccccc3)nn2)O[C@@H]1CO | -76[16.7 µM] | -11
C[C@@H]1CCCCO[C@@H](CN(C)C(=O)Nc2ccccc2)[C@H](C)CN([C@@H](C)CO)C(=O)c2cc(NS(=O)(=O)c3ccc(F)cc3)ccc2O1 | -92[16.7 µM] | -2
C[C@@H]1CCCCO[C@H](CN(C)C(=O)Nc2ccccc2)[C@@H](C)CN([C@@H](C)CO)C(=O)c2cc(NS(=O)(=O)c3ccc(Cl)cc3)ccc2O1 | -11[16.7 µM] | -6
O=C(C[C@@H]1C=C[C@H](NS(=O)(=O)c2ccc(F)cc2)[C@@H](CO)O1)NC1CCC1 | 14[16.7 µM] | 8
C[C@H]1CN([C@@H](C)CO)S(=O)(=O)c2ccc(Br)cc2O[C@H]1CN(C)CC1CC1 | 4[16.7 µM] | 2
C[C@H](CO)N1C[C@H](C)[C@@H](CN(C)CC2CCCCC2)Oc2ccc(NC(=O)C3CC3)cc2CC1=O | -9[16.7 µM] | -7
COc1ccc(S(=O)(=O)N(C)C[C@@H]2Oc3ccc(NS(=O)(=O)c4cccs4)cc3C(=O)N([C@H](C)CO)C[C@@H]2C)cc1 | 8[16.7 µM] | -10
C[C@@H]1CN([C@H](C)CO)C(=O)c2cc(-c3cccc(C#N)c3)cnc2O[C@H]1CN(C)Cc1ccncc1 | -1[16.7 µM] | -4
C[C@H]1CN([C@@H](C)CO)C(=O)c2cc(/C=C/c3ccccc3)cnc2O[C@@H]1CN(C)S(=O)(=O)c1ccccc1 | 10[16.7 µM] | 4
C[C@@H]1CN([C@@H](C)CO)C(=O)Cc2cc(N(C)C)ccc2O[C@@H]1CN(C)Cc1ccc(Cl)c(Cl)c1 | 6[16.7 µM] | -2
COc1ccc(NC(=O)Nc2ccc3c(c2)C(=O)N([C@@H](C)CO)C[C@@H](C)[C@H](CN(C)C)OCCCC[C@H](C)O3)cc1 | 0[16.7 µM] | -26
C[C@@H]1CN([C@@H](C)CO)C(=O)c2cc(NC(=O)Nc3ccc4c(c3)OCO4)ccc2O[C@H]1CN(C)Cc1ccc(Oc2ccccc2)cc1 | -9[16.7 µM] | 50
COc1ccc(NC(=O)N(C)C[C@@H]2Oc3ccc(NC(=O)Nc4ccc(C(F)(F)F)cc4)cc3C(=O)N([C@@H](C)CO)C[C@H]2C)cc1 | -65[16.7 µM] | -2
C[C@H](CO)N1C[C@H](C)[C@H](CN(C)C(=O)Cc2cccnc2)Oc2cc(C#CC3(O)CCCC3)ccc2S1(=O)=O | -9[16.7 µM] | -4
C[C@@H]1CCCCO[C@@H](CN(C)S(=O)(=O)c2cn(C)cn2)[C@@H](C)CN([C@@H](C)CO)C(=O)c2cc(NC(=O)CCCN(C)C)ccc2O1 | 7[16.7 µM] | 4
COCC#Cc1cnc2c(c1)C(=O)N([C@@H](C)CO)C[C@H](C)[C@@H](CN(C)C(=O)c1cccnc1)O2 | 8[16.7 µM] | -8
C[C@@H]1CN([C@H](C)CO)C(=O)c2cc(NC(=O)c3ccccc3)ccc2O[C@@H](C)CCCCO[C@H]1CN(C)S(=O)(=O)c1ccc(Cl)cc1 | 13[16.7 µM] | -12

Ordered by heavy-atom count (ascending): 3 of the compounds above.
SMILES | Env fusion inh | Yeast UUG start
C[C@@H]1CN([C@H](C)CO)C(=O)c2cc(-c3cccc(C#N)c3)cnc2O[C@H]1CN(C)Cc1ccncc1 | -1[16.7 µM] | -4
COc1ccc(NC(=O)Nc2ccc3c(c2)C(=O)N([C@@H](C)CO)C[C@@H](C)[C@H](CN(C)C)OCCCC[C@H](C)O3)cc1 | 0[16.7 µM] | -26
C[C@@H]1CN([C@H](C)CO)C(=O)c2cc(NC(=O)c3ccccc3)ccc2O[C@@H](C)CCCCO[C@H]1CN(C)S(=O)(=O)c1ccc(Cl)cc1 | 13[16.7 µM] | -12

Other compounds.
SMILES | Env fusion inh | Yeast UUG start
CNC(=O)C[C@@H]1CC[C@@H]2[C@H](COc3ccc(NC(=O)C4CC4)cc3C(=O)N2C)O1 | 3[16.7 µM] | 3
Cc1ccc(-c2cnc3c(c2)C(=O)N([C@H](C)CO)C[C@H](C)[C@H](CN(C)CC2CCOCC2)O3)cc1 | 2[16.7 µM] | -14
COCC(=O)Nc1ccc2c(c1)[C@H]1C[C@H](CC(=O)NCc3ccc(OC)cc3)O[C@H](CO)[C@H]1O2 | -5[16.7 µM] | -3
COc1ccccc1S(=O)(=O)N(C)C[C@H]1Oc2cc(C#CCC(C)C)ccc2S(=O)(=O)N([C@@H](C)CO)C[C@@H]1C | 15[16.7 µM] | -9
C[C@H](CO)N1C[C@H](C)[C@H](CN(C)Cc2ccc(C(=O)O)cc2)Oc2ccc(NC(=O)Nc3ccc4c(c3)OCO4)cc2CC1=O | 4[16.7 µM] | -8
Cc1noc(C)c1NC(=O)Nc1cccc2c1O[C@H](CN(C)C(=O)Nc1ccccc1)[C@@H](C)CN([C@@H](C)CO)C2=O | 3[16.7 µM] | -13
C[C@H]1CN([C@@H](C)CO)C(=O)c2cccc(N(C)C)c2O[C@@H]1CN(C)Cc1ccc(C(=O)O)cc1 | 3[16.7 µM] | -19
COCC#Cc1cnc2c(c1)C(=O)N([C@@H](C)CO)C[C@H](C)[C@@H](CN(C)C(=O)c1cnccn1)O2 | 0[16.7 µM] | -21
COc1ccc(S(=O)(=O)N(C)C[C@H]2OCCCC[C@H](C)Oc3ccc(NS(=O)(=O)c4cccs4)cc3C(=O)N([C@H](C)CO)C[C@H]2C)cc1 | -42[16.7 µM] | -4
C[C@@H]1CCCCO[C@H](CN(C)S(=O)(=O)c2cccs2)[C@@H](C)CN([C@H](C)CO)C(=O)c2cc(NC(=O)Nc3ccccc3)ccc2O1 | 8[16.7 µM] | 3
COCc1cn(CC[C@H]2CC[C@@H](NC(=O)Nc3ccccc3)[C@@H](CO)O2)nn1 | -26[16.7 µM] | -9
COC(=O)C[C@H]1CC[C@H]2[C@H](COc3ccc(NC(=O)C4CC4)cc3C(=O)N2C)O1 | -14[16.7 µM] | -8
CCNC(=O)C[C@@H]1CC[C@H]2[C@H](COc3ccc(NC(=O)Nc4cccc(OC)c4)cc3C(=O)N2C)O1 | -26[16.7 µM] | 2
C[C@@H]1CN([C@H](C)CO)C(=O)c2cc(NC(=O)Nc3ccc(C(F)(F)F)cc3)ccc2O[C@H]1CN(C)C(=O)Nc1cccc2ccccc12 | 13[16.7 µM] | -13
CCCNC(=O)N1[C@@H](C#N)[C@@H](c2ccc(-c3cccc(OC)c3)cc2)[C@@H]1CO | -2[16.7 µM] | -9
C[C@@H]1CN([C@H](C)CO)C(=O)c2cccc(NC(=O)C3CCOCC3)c2O[C@H]1CN(C)CC1CCCCC1 | 39[16.7 µM] | 9
C/C=C/c1cnc2c(c1)C(=O)N([C@@H](C)CO)C[C@@H](C)[C@@H](CN(C)Cc1ccc3c(c1)OCO3)O2 | -6[16.7 µM] | -6
C[C@H](CO)N1C[C@H](C)[C@H](CN(C)S(=O)(=O)c2cccs2)Oc2c(NS(=O)(=O)c3ccc(Cl)cc3)cccc2C1=O | 11[16.7 µM] | -4
COc1cccc(C#Cc2ccc3c(c2)O[C@H](CN(C)C)[C@H](C)CN([C@@H](C)CO)S3(=O)=O)c1 | -38[16.7 µM] | 3
N#C[C@@H]1[C@H](c2ccc(C3=CCCCC3)cc2)[C@@H](CO)N1C(=O)CN1CCOCC1 | 31[16.7 µM] | 6
C[C@@H](NC(=O)C[C@H]1C[C@H]2c3cc(NC(=O)Nc4ccccc4F)ccc3O[C@H]2[C@@H](CO)O1)c1ccccc1 | 15[16.7 µM] | -2
C[C@@H]1CN([C@H](C)CO)C(=O)c2cc(NS(=O)(=O)c3cccs3)ccc2O[C@@H](C)CCCCO[C@H]1CN(C)Cc1ccc(C(F)(F)F)cc1 | 6[16.7 µM] | 5
O=C(Nc1ccc2c(c1)[C@@H]1C[C@@H](CC(=O)N3CCCCC3)O[C@H](CO)[C@@H]1O2)C1CCC1 | -16[16.7 µM] | -14
Cc1ccc(S(=O)(=O)N(C)C[C@@H]2Oc3ccc(NC(=O)Nc4ccc5c(c4)OCO5)cc3CC(=O)N([C@@H](C)CO)C[C@H]2C)cc1 | 31[16.7 µM] | -11
C[C@@H]1CN([C@H](C)CO)S(=O)(=O)c2ccc(C#CC3(O)CCCC3)cc2O[C@@H]1CN(C)C | -13[16.7 µM] | 19
